Source: PubChem (several laboratories)
E coli growth = E. coli growth inhibition, primary screen, OD600; Escherichia coli growth, 23 h; active compounds read low; OD600 absorbance (test concentration not listed); actives 0.21% (n = 330,000); AID 1053175, 2014;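 active = OD600 absorbance below the run mean of sample wells minus 3.6 SD, in any replicate, cut at about 0.56 in these data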;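 also: stock transfer was 300 nL into about 60 µL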
HNF4A DNA FP = change in binding of human HNF4A to DNA, primary screen, biochemical, fluorescence polarization, FITC-DNA; activity change, % at 10 µM; 1 h; actives 0.3% (n = 360,000); in the data active = activity change above about 30%, passing the limit was not always enough;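 also: controls were the assay level and a saturating level of protein; the project sought stronger binding though the title names inhibitors; some compounds called inactive have numbers as strong as hits; positive values seem to mean higher polarization but the record does not say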
UCH37 inh = inhibitors of human UCH37 deubiquitinase, primary screen, biochemical, Ub-AMC cleavage, fluorescence; inhibition, % (no concentration beside the values); actives 0.33% (n = 330,000); purified proteasome/UCH37;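 active = mean of two replicates above 20%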;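 also: 0% = compound-free wells with enzyme and 100% = wells lacking proteasome; stock transfer was 100 nL into about 20 µL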
Target sequence (Q9Y5K5 whole entry, looked up): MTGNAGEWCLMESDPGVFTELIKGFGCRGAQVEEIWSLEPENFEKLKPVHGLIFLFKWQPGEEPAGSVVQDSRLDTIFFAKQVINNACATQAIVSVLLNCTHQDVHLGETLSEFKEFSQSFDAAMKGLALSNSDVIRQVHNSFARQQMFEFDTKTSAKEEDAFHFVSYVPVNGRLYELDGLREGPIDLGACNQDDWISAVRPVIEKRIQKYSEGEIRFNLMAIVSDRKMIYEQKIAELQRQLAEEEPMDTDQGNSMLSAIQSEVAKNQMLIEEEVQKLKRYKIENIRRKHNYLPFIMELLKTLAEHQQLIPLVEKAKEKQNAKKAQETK
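Reagent: Ub-AMC substrate; assay system: Proteasome-associated human UCH37 deubiquitinase; controls: no-proteasome and no-compound wells; read-out: % inhibition of Ub-AMC cleavage fluorescence; timing: 30 min preincubation with enzyme, 25 min cleavage at room temperature; signal: AMC fluorescence from Ub-AMC cleavage, excitation 355 nm, emission 460 nm; buffer or medium: Tris-HCl pH 7.4 plus ovalbumin, ATP-MgCl2, DTT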
RanGTP-Impb inh = inhibitors of RanGTP-importin-beta interaction, primary screen, biochemical, FRET, CFP-Ran, YFP-importin-beta, homogeneous | Ran GTPase (GTP-bound) - importin-beta complex | cell-free CFP-Ran/YFP-importin-beta FRET ratio | inhibition, % (test concentration not listed) | actives 1.1% (n = 300,000);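 active = most replicates above 15%; inconclusive = exactly half above 15%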;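 also: 0% = DMSO wells and 100% = Ran loaded with GDP instead of GTP; wells of about 40 µL received 100 nL stock; the first replicate is given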
AF4-AF9 inh = inhibitors of AF4 peptide binding to AF9, primary screen, biochemical, AlphaScreen, biotin-AF4 peptide, FLAG-AF9, single point; Protein AF-9 (Homo sapiens), P42568; inhibition, % at 10 µM; actives 0.47% (n = 350,000); AID 651704, 2012;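 active = every replicate reaching a set inhibition limit, whatever the replicate mean, cut at about 25% in these data; inconclusive = mean inhibition reaches that limit but some replicates miss it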;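 also: 0% = plate neutral control median and 100% = total signal loss; the record names both 10 and 1 µM as test concentration; the first replicate is given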
Target sequence (P42568 whole entry, looked up): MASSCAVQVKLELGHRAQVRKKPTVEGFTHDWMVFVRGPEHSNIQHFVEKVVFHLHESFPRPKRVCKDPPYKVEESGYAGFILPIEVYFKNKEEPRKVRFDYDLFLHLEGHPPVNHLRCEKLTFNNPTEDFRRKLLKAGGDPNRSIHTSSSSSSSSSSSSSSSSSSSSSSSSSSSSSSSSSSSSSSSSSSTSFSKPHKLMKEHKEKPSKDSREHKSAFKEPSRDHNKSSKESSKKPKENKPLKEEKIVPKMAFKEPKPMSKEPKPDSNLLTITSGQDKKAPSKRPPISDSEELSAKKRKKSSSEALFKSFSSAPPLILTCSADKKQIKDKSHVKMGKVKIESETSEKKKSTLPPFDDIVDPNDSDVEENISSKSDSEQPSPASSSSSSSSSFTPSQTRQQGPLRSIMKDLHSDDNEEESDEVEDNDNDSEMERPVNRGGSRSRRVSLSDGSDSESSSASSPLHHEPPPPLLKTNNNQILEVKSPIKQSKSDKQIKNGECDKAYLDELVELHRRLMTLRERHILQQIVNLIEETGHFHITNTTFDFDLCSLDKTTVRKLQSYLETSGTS
Vif A3G = inhibitors of Vif binding to APOBEC3G peptide, primary screen, biochemical, TR-FRET, GST-Vif 1-94, biotin-A3G peptide, dose response retest (AID 1117319); TR-FRET GST-Vif / biotin-A3G peptide binding; higher % means a stronger effect; test concentration not given here; strong numbers were not always called active; actives 0.57% (n = 260,000); inhibition, %, or IC50 in µM where a hit was titrated;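 active = above the screen mean plus three standard deviations and confirmed in dose response; inconclusive = results disagree or hit not tested in dose response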;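 also: Vif residues 1-94 fused to GST binding biotinylated APOBEC3G peptide 110-148; 0% = full assay without inhibitor and 100% = GST in place of GST-Vif; retest series ran down from 100 µM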
FGF22 binding = binders of human FGF22 protein, primary screen, FGF22 synaptogenesis inhibitor project, biophysical, thermal shift, single point. Fibroblast growth factor 22 (Homo sapiens), Q9HCT0. recombinant FGF22 thermal shift, SYPRO orange fluorescence; percent of sucrose octasulfate shift, DMSO zero. calls only at 9.99 µM. actives 1.5% (n = 340,000). AID 651658, 2012;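 active = melting point raised past a set limit in the mean and every replicate; inconclusive = no clear call; three in four hits are not shown here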
Target sequence (Q9HCT0 whole entry, looked up): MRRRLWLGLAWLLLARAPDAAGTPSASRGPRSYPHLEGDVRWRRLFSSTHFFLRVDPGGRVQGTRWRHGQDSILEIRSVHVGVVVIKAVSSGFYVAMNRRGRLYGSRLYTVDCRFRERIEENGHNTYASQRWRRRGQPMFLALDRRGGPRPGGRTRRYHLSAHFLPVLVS
Active calls of the source: *; i = inactive; ? = inconclusive; · = not tested or not shown. A portion of the library, so the mix of outcomes need not match the whole.

SMILES	E coli growth	HNF4A DNA FP	UCH37 inh	RanGTP-Impb inh	AF4-AF9 inh	Vif A3G	FGF22 binding
O=C(CSc1nc(-c2ccccc2)cc(=O)[nH]1)Nc1ccc(Br)cc1	0.7	10	2.0	1.5	-0.6	-10%	i
O=C(Nc1ccc([N+](=O)[O-])cc1)C(c1ccccc1)c1ccccc1	·	-1.8	·	·	-1.9	4%	i
COC1=Nc2ccccc2N2CCN=C12	·	-1.4	·	·	6.7	·	i
O=C1C=CC(=O)N1Cc1ccncc1	·	-1.9	·	·	-3.2	9%	i
CCN(CC)CCn1c(-c2ccc(C)cc2)nc(=S)c2c1CC(C)(C)OC2	0.68	3.1	7.2	34	·	8%	i
COc1ccc(S(=O)(=O)N2CCOCC2)cc1NC(=O)CN1C(=O)NC2(CCCC2)C1=O	0.72	-4.4	2.5	·	0.4	7%	i
CC(Oc1ccc(Cl)cc1)c1ccnc(N)n1 (stereo unspecified)	0.67	-1.4	3.0	3.2	-2.1	·	i
O=C(CN1CCC(NC(=O)c2ccccc2)CC1)NCc1ccccc1F	0.64	1.1	-0.1	-1.1	·	-1%	·
Cc1cccc(N(CC(N)=O)C2SC(=O)NC2=O)c1 (stereo unspecified)	0.69	4.3	0.9	?	·	-2%	·
O=C(Nc1ccc(S(=O)(=O)N2CCCC2)cc1)C1COc2ccccc2O1 (stereo unspecified)	0.74	-0.5	5.2	0.3	0.9	?	i
O=C1N2CCCCC1(Sc1ccccc1)CCC2 (stereo unspecified)	·	0.0	·	·	-4.1	·	i
CCc1nnc(NC(=O)C2CCN(C(=O)c3ccccc3C)CC2)s1	0.69	-5.2	2.9	·	-0.8	-9%	i
O=C(NCCO)c1cccc(-c2cnc3cccnn23)c1	·	1.8	·	·	-3.4	·	i
Cc1ccc(NC(=O)COC(=O)C(CC(C)C)N2C(=O)C3CC=CCC3C2=O)c(C)c1 (stereo unspecified)	0.71	-1.0	5.7	5.5	·	24%	·
CC(=O)c1c(C)nc(-c2ccc(OCC(=O)Nc3ccccc3)cc2)n1O	0.71	0.0	1.6	2.3	-0.9	-1%	i
CS(=O)(=O)N(CC(=O)O)c1cccc(Cl)c1	0.7	1.1	2.7	1.3	·	-6%	·
Cc1cccc(OCCNc2nc3c(c(=O)n(C)c(=O)n3C)n2C)c1	0.8	-1.5	4.4	0.5	·	-2%	·
CC[n+]1ccccc1/C=C/Nc1ccccc1	0.63	0.8	5.6	-1.5	-0.3	7%	i
CC(=O)NC(=O)NC1CSCC1OC(C)=O (stereo unspecified)	0.69	-1.7	5.5	2.0	·	-1%	·
CCC[C@H]1COCCS(=O)(=O)N1Cc1ccccc1	·	-1.4	0.6	?	0.6	·	i

Some values from above.
O=C1N2CCCCC1(Sc1ccccc1)CCC2 (stereo unspecified) in HNF4A DNA FP → 0.0
CCc1nnc(NC(=O)C2CCN(C(=O)c3ccccc3C)CC2)s1 in UCH37 inh → 2.9

Going on with the list.
SMILES	E coli growth	HNF4A DNA FP	UCH37 inh	RanGTP-Impb inh	AF4-AF9 inh	Vif A3G	FGF22 binding
CC(O)(c1cccc(F)c1)c1nc(-c2ccc(Cl)cc2)cs1 (stereo unspecified)	·	3.7	·	·	-4.9	·	i
COCCN(C(C)=O)c1nnc(-c2cnccn2)s1	0.7	0.2	-3.6	-3.3	·	-1%	·
O=C(CSc1nc(-c2ccccc2)cc(=O)[nH]1)NCc1ccc2c(c1)OCO2	0.71	-1.4	1.8	2.6	·	-3%	·
CNc1cncc(-c2c(OC)cccc2OC)n1	·	-2.8	·	·	9.1	·	i
CCOC(=O)CSC1=C(C#N)C(=O)NC(c2ccc(OC)c(OC)c2)S1 (stereo unspecified)	·	-1.0	2.9	-0.1	·	7%	·
Cc1cc(C(=O)CN2CC(C)OC(C)C2)c(C)n1-c1ccccc1 (stereo unspecified)	0.71	6.0	2.9	2.2	?	2%	i
CC(=O)Nc1ccc(S(=O)(=O)N2CCN(C(=O)N3CCOCC3)CC2)cc1	0.75	-3.4	1.7	-1.2	·	4%	·
Cc1[nH]n(-c2ccccc2)c(=O)c1N=Nc1ccc(C#N)cc1	0.71	2.4	5.3	1.7	-5.2	3%	i
O=C(c1ccc([N+](=O)[O-])s1)N1CCc2ccccc21	0.65	67*	1.0	2.0	-2.1	·	i
COc1ccc(NC(=O)C2CC(=O)N/C(=N/N=C/c3ccccc3)S2)cc1 (stereo unspecified)	·	-0.8	·	1.5	-2.4	-7%	i
Cc1oc2c(c(C)cc3oc(=O)c(CC(=O)N[C@@H](CC(C)C)C(=O)O)c(C)c32)c1C	0.6	-0.4	-133	4.1	-30	0%	i
COc1ccc(-c2ccc(/C=C(\NC(=O)c3ccccc3)C(=O)N3CCOCC3)o2)cc1	0.7	0.6	12	-1.5	-0.2	6%	i
C#CCOc1ccc2c3c(c(=O)oc2c1)CCCC3	0.65	0.1	-45	2.5	0.5	·	i
Cc1nc2ccccc2c(=O)n1/N=C/c1ccccc1OC(F)F	·	-3.9	·	0.2	2.4	-4%	i
COc1ccc(-n2cnnc2SCC(=O)Nc2ccc(N3CCOCC3)cc2)cc1	0.71	0.0	-1.0	-4.4	·	12%	·
CCCCN1CCNC[C@H]1Cc1ccc(O)cc1	·	2.2	0.3	4.1	0.4	·	i
O=C(/C=C/c1ccco1)NC(=S)Nc1cc(-c2nc3ccccc3s2)ccc1Cl	0.66	1.2	11	·	3.1	·	i
COc1ccccc1Nc1nc(N)nc(CSc2nncn2C)n1	0.67	-1.1	2.8	-1.5	·	-1%	·
CSC1=N/C(=C\c2ccc(Cl)cc2)C(=O)N1N(C)C	0.66	-0.8	5.8	4.1	?	·	i
Cc1nc2ccc(S(=O)(=O)NC(C(=O)Nc3nccs3)C(C)C)cc2s1 (stereo unspecified)	0.74	-2.6	-0.2	-4.6	-4.9	10%	i
CN(C)/C=C/C(=O)c1ccc(C(F)(F)F)cc1F	0.66	4.4	8.6	3.2	-1.6	4%	i
CCN(CC)c1ccc(CNc2nnnn2C)cc1	0.72	0.1	3.8	-0.1	-2.2	·	i
S=C(Nc1ccccc1)Nc1nc2ccccc2n1CCOc1ccc(Br)cc1	0.68	-3.2	0.9	0.0	·	5%	·
COc1ccc(-c2nc3ncccc3n2O)cc1	0.55	1.4	5.0	?	-3.4	4%	i
CN(C)C(CNC(=O)C1CC(=O)N(c2cccc(C(F)(F)F)c2)C1)c1ccccc1 (stereo unspecified)	·	-0.9	·	·	-2.6	16%	i
COc1ccc2c(c1)[nH]c1c(=O)n(/N=C/c3ccc(OC)c(COc4ccccn4)c3)cnc12	·	4.8	·	0.5	0.3	15%	i
COc1cccc(C(=O)NCC2CCCN2S(=O)(=O)c2ccccc2)c1 (stereo unspecified)	0.7	0.1	1.0	3.1	1.4	-2%	i
NNc1nc2c(Cl)c(Cl)ccc2s1	0.63	-0.3	3.5	0.1	·	-2%	·
CCC1(CC(C)C)SC(N)=NC1=O (stereo unspecified)	0.71	-2.6	2.9	·	-4.7	-6%	i
NS(=O)(=O)c1ccc(CCNC(=O)CNC(=O)c2ccccc2Br)cc1	0.72	3.6	-2.4	-2.0	-3.4	·	i
O=C(O)c1cc(C(=O)O)cc(N2C(=O)CSC2=S)c1	0.69	-3.4	3.9	0.0	-0.7	0%	i
O=C(COc1ccc(-c2ccccc2)cc1)N/N=C/c1ccccc1Br	·	-2.2	·	?	·	0%	·
CCN(CC)c1ccc(/C=N/Nc2nc(C)cc(=O)[nH]2)cc1	·	0.1	·	-3.3	·	?	·
C=CCn1c(SCC(=O)NCc2ccco2)nc2sc(C)c(C)c2c1=O	0.7	-0.4	1.6	0.7	-45	0%	i
CCOc1cccc2sc(N(CCCN(C)C)C(=O)c3ccc(S(=O)(=O)N4CCc5ccccc5C4)cc3)nc12	0.68	3.0	0.5	0.5	-0.4	·	i
O=C(NC1CCCCC1)C(c1ccccc1)N(C(=O)c1csnn1)C1CCCC1 (stereo unspecified)	0.71	0.5	1.6	-4.2	4.4	·	i
COc1ccc(C)cc1N(C(=O)c1snc(C(N)=O)c1N)C(C(=O)NC1CCCC1)c1ccc(F)cc1 (stereo unspecified)	0.72	-2.8	-47	8.3	0.0	·	i
CCCn1cc(SCC(=O)NCc2ccco2)c2ccccc21	0.71	7.5	3.9	?	·	-5%	·
COc1ccc(NC(=O)c2cccs2)cn1	0.65	1.4	3.8	1.1	-0.9	·	i
CCCCN1CC(N2CCN(C(=O)c3ccco3)CC2)CS1(=O)=O (stereo unspecified)	·	0.5	·	·	-1.1	·	i

Profiles, quoted from the list:
C=CCn1c(SCC(=O)NCc2ccco2)nc2sc(C)c(C)c2c1=O in the list: E coli growth = 0.7; HNF4A DNA FP = -0.4; UCH37 inh = 1.6; RanGTP-Impb inh = 0.7; AF4-AF9 inh = -45; Vif A3G = 0%; FGF22 binding = i
CCOc1cccc2sc(N(CCCN(C)C)C(=O)c3ccc(S(=O)(=O)N4CCc5ccccc5C4)cc3)nc12 in the list: E coli growth = 0.68; HNF4A DNA FP = 3.0; UCH37 inh = 0.5; RanGTP-Impb inh = 0.5; AF4-AF9 inh = -0.4; Vif A3G = ·; FGF22 binding = i

Continued.
SMILES	E coli growth	HNF4A DNA FP	UCH37 inh	RanGTP-Impb inh	AF4-AF9 inh	Vif A3G	FGF22 binding
COC(=O)c1ccc(NC(=O)CN2C(=O)CCC2=O)cc1	0.72	-0.5	4.1	-3.7	·	-3%	·
O=[N+]([O-])c1ccccc1S(=O)(=O)N1CCN(C2CCCC2)CC1	0.71	-3.8	-0.2	6.0	1.1	·	i
Cc1cc(C)cc(OCC(=O)NN2Cc3ccccc3C2=N)c1	0.7	2.5	-0.4	2.0	·	7%	·
COc1ccc(CNC(=O)C(C)N2CCN(S(=O)(=O)c3ccccc3F)CC2)cc1 (stereo unspecified)	0.66	0.2	4.6	·	-2.1	-10%	i
Cc1sc2nc(CSCC(=O)Nc3c(F)cccc3F)[nH]c(=O)c2c1C	0.71	4.0	0.6	-2.9	-2.5	8%	i
CCOC(=O)N1CCC(NC(=O)CC2C(=O)NCCN2Cc2cccc(F)c2F)CC1 (stereo unspecified)	0.7	-3.2	-0.1	3.8	-2.1	5%	i
COc1ccc(CN(C)C(=O)c2[nH]c(C)c(C(C)=O)c2C)cc1F	0.72	3.0	3.4	3.9	-3.6	·	i
COc1cc(NC(=S)NC2CC(C)(C)NC(C)(C)C2)cc(OC)c1	0.68	-0.7	-0.2	-2.2	4.4	-9%	i
COC(=O)c1cn(C(=O)c2ccccc2Cl)c2ccccc12	0.63	-2.9	6.4	-2.2	-11	-1%	i
CCOc1ccc(C(=O)C(C)OC(=O)c2nc(Cl)ccc2Cl)cc1 (stereo unspecified)	0.67	0.7	4.7	-2.0	-12	2%	·
N#Cc1ccc(Oc2ccc(S(=O)(=O)N3CCCCC3)cn2)cc1	0.69	-1.4	4.5	2.0	·	·	·
CCOc1ccc(S(=O)(=O)/N=C(/Nc2ccc(OC)cc2)c2ccccc2)cc1	0.68	-2.3	-1.0	?	1.2	·	i
CN(Cc1ccccc1)C(=O)Cn1nnc(-c2ccccc2)c1COc1ccc2ccccc2c1	·	4.7	·	·	-4.6	·	i
COC(=O)C1SCC2C(=O)N(Cc3ccc(Cl)cc3)CC(=O)N21 (stereo unspecified)	0.7	0.6	16	-3.7	-5.7	11%	i
O=C(N[C@H]1CCCCNC1=O)c1cc(COc2ccc(F)cc2F)on1	0.71	0.5	-1.0	0.7	-1.3	·	i
O=C(NC1CCCCC1)N1CCCC(CNS(=O)(=O)Cc2ccccc2)C1 (stereo unspecified)	0.71	-0.2	1.8	-0.4	-1.9	7%	i
